Cruzain inh Det – cruzain (T. cruzi) inhibition with detergent; purified cruzain, Z-FR-AMC fluorescence, 0.01% Triton; 200,000 compounds, 0.43% hits; AID 1478; Potency, µM, for the others: max response, negative = inhibition, actives largely listed as inhibitors;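 further: plate controls were neutral wells for no effect and buffer without enzyme for full effect; nearly all actives have a fitted effect of over 40% in size; top concentration of the series not given in the record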
Target sequence (P25779 123-467 limits assumed): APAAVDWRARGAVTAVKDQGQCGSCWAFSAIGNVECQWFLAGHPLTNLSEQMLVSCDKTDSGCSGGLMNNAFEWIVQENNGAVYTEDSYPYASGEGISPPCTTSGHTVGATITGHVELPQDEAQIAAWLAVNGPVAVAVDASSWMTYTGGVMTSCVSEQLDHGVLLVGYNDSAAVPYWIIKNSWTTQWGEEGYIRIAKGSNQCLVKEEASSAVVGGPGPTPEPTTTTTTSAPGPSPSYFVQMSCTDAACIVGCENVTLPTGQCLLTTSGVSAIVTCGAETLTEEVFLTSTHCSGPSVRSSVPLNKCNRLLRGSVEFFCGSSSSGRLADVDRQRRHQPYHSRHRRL
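Steps: dispense cruzain (1.5 nM final) in acetate buffer pH 5.5 with DTT and 0.01% Triton X-100; pin-transfer compounds; incubate 15 min RT; add Z-FR-AMC (2 uM final); read fluorescence every 30 s, using the 60 s intensity change.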
MARV entry inh – inhibitors of Marburg virus binding or cell entry | Potency, µM (series often up to 37.8 µM), without a hit: at the highest dose activity change, negative = inhibition, actives largely listed as inhibitors | 300,000 compounds, 1.8% hits | Marburg virus pseudotyped entry inhibition, cell reporter; control for the full effect not named in the record; about a third of the inactives were read at about 46 µM; active = well fitted inhibition curve with a large enough effect; inconclusive = small, poorly fitted or top-dose-only effect, or effect the other way; inactive = flat fitted curve, though single readings scatter; tested in HEK293 cells; about a fifth of its hits are not listed in these tables; further: on the % scale 0 is the no-effect control and ±100 the full control effect; luciferase read-out
RE007 growth inh – less growth of the S. pombe RE007 Vpr strain; AID 651644; S. pombe RE007 Vpr strain, BacTiter-Glo ATP luminescence, 24 h; control for the full effect not named in the record; 360,000 compounds, 0.21% hits; Potency, µM (titrated, usually from 92.2 µM), for the others: top-dose activity change, negative = less growth; active = well fitted falling curve with a large enough effect; inconclusive = small, poorly fitted or top-dose-only effect; inactive = no such curve, though single readings can be large or run the other way;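 further: on the % scale 0 is the no-effect control and ±100 the full control effect; nearly all actives have a fitted effect of over 50% in size; the assay follows cell death caused by Vpr and the record does not say whether a fall means rescue or toxicity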
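Fission yeast RE007 carrying one integrated HIV-1 vpr copy, seeded at OD 0.01 in PMG+AL medium with 23 nL pinned compound. Grown 24 h at 30 degrees; viability read by BacTiter-Glo luminescence after 5 min.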
StopGo reporter – FMDV 2A StopGo reporter, luciferase signal. human cells with a luciferase reporter of 2A StopGo recoding; control for the full effect not named in the record. 410,000 compounds, 1.2% hits. Potency, µM (titrated, usually from 57.9 µM), for the others: at the top dose signal change, negative = less light. AID 1159524; active = well fitted falling curve with a large enough effect; inconclusive = small, poorly fitted or top-dose-only effect; inactive = no such curve, though single readings can be large or run the other way; tested in HEK293T cells; further: on the % scale 0 is the no-effect control and ±100 the full control effect; nearly all actives have a fitted effect of over 45% in size; luciferase light after 4 h
SARS PLpro yeast – inhibitors of SARS-CoV papain-like protease in yeast. 330,000 compounds, 0.19% hits. S. cerevisiae expressing SARS-CoV PLpro, growth rescue; control for the full effect not named in the record. Potency, µM (highest dose often 32.9 µM), without a hit: at the top dose activity, positive = growth rescue; active means well fitted rising curve with a large enough effect; inconclusive means small, poorly fitted or top-dose-only effect; inactive means no such curve, though single readings can be large or run the other way; further: 0% is about no effect; nearly all actives have a fitted effect of over 55% in size; growth read by luminescence after 48 h
Cruzain inh noDet – cruzain (T. cruzi) inhibition without detergent. P25779. purified cruzain, Z-FR-AMC fluorescence, no detergent. Potency, µM, for inactives: max response, negative = inhibition, most hits filed as inhibitors. 200,000 compounds, 2.3% hits;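 further: plate controls were enzyme without inhibitor for no effect and buffer without enzyme for full effect; nearly all actives have a fitted effect of over 40% in size; top concentration of the series not given in the record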
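Detergent-free condition (0.00005% Triton X-100) in acetate buffer pH 5.5 with DTT. 1.5 nM enzyme and compound were pre-mixed 15 min, then 2 uM Z-FR-AMC substrate added; reaction progress from fluorescence change between first and third reads (60 s).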
NS1 function inh – blocks influenza NS1 protein function | S. cerevisiae slowed by influenza A NS1, growth recovery by OD600 | Potency, µM (highest dose often 46.1 µM), for inactives: top-dose activity, positive = more growth | 270,000 compounds, 0.4% hits | AID 2326; active means well fitted rising curve with a large enough effect; inconclusive means small, poorly fitted or top-dose-only effect; inactive means no such curve, though single readings can be large or run the other way; further: nearly all actives have a fitted effect of over 50% in size
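Growth recovery, yeast-based: influenza A NS1 expressed in S. cerevisiae causes slow growth, and suppressors are detected by OD600. The parent strain without NS1 is used as positive control.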
Lassa entry inh – inhibitors of Lassa virus binding or cell entry. Lassa virus pseudotype entry inhibition, cell reporter; control for the full effect not named in the record. Potency, µM (doses to about 37.9 µM), without a hit: at the highest dose activity change, negative = inhibition, most hits filed as inhibitors. 300,000 compounds, 1.2% hits; active means well fitted inhibition curve with a large enough effect; inconclusive means small, poorly fitted or top-dose-only effect, or effect the other way; inactive means flat fitted curve, though single readings scatter; tested in HEK293 cells; further: on the % scale 0 is the no-effect control and ±100 the full control effect; nearly all actives have a fitted effect of over 50% in size; luciferase read-out
* marks the source's active call; other numbers are inactive results; ? = inconclusive; / = no result given; [ ] = remark or other dose. Unless noted, the call rests on the fitted dose curve; in most records, active means well fitted curve in the direction sought with a large enough effect; inconclusive means small, poorly fitted or top-dose-only effect, or another doubt; inactive means no such curve, though single readings can be large; an effect the other way counts as inactive or inconclusive. Potency means the concentration at half of the fitted maximal effect.

Start of the listing, in advance (two entries):
Below each compound: Cruzain inh Det	MARV entry inh	RE007 growth inh	StopGo reporter	SARS PLpro yeast	Cruzain inh noDet	NS1 function inh	Lassa entry inh
> COc1cc(/C=C/C(=O)OCC(=O)Nc2ccc(S(=O)(=O)N3CCCC3)cc2)ccc1O
    -9.3%	-13%	3%	-29%	10%	?	15%	?
> COc1ccc(CN2CCN(c3ccccc3F)CC2)c(OC)c1
    4.2%	2%	/	/	4%	-2%	-7%	/

The listing, from the start:
Below each compound: Cruzain inh Det	MARV entry inh	RE007 growth inh	StopGo reporter	SARS PLpro yeast	Cruzain inh noDet	NS1 function inh	Lassa entry inh
> COc1cc(/C=C/C(=O)OCC(=O)Nc2ccc(S(=O)(=O)N3CCCC3)cc2)ccc1O
    -9.3%	-13%	3%	-29%	10%	?	15%	?
> COc1ccc(CN2CCN(c3ccccc3F)CC2)c(OC)c1
    4.2%	2%	/	/	4%	-2%	-7%	/
> COc1ccc(C(=O)Nc2nccs2)cc1[N+](=O)[O-]
    -3.3%	17%	5%	58%[activator]	17%	8%	-4%	3%
> O=C(Cn1nnc2ccccc2c1=O)Nc1ccc2c(c1)CCC2
    0.1%	?	9%	/	1%	-18%	7%	4%
> COc1cc(N2CCCC2)ccc1[N+](=O)[O-]
    -14%	?	-10%	-1%	-16%	-19%	?	-2%
> Cc1ccccc1Cn1c(=N)n(CC(=O)c2ccc([N+](=O)[O-])cc2)c2ccccc21
    3.3%	?	-1%	-13%	8%	?	25%	?
> CCN(CC)CC(=O)NC12CC3CC(CC(C3)C1)C2
    -3.9%	-6%	-15%	0%	-1%	0%	-5%	16%
> N#CCCCn1c(=O)oc2ccccc21
    /	?	10%	-14%	1%	/	2%	8%
> Cc1c(C(=O)C(=O)N2c3ccc(F)cc3CCC2C)c2ccccc2n1C (centres undefined)
    -6.6%	?	0%	0%	-6%	4%	1%	?
> COc1ccc(/C=C/C(=O)Oc2ccc(C)c(C)c2)cc1OC
    /	14%[46.1 µM]	-12%	3%	-1%	/	/	-5%
> O=S(=O)(Nc1ccc(-n2cccc2)cc1)c1ccccc1
    -8.1%	-21%	-11%	53%[activator]	-9%	-3%	-3%	-18%
> COc1cccc(C(=O)NNC(=O)c2ccccc2)c1
    /	/	-15%	55%[activator]	4%	/	?	/
> CN(C)C(CNC(=O)c1ccc(NC(=O)CC#N)cc1)c1ccccc1 (centres undefined)
    /	0%[46.1 µM]	-9%	6%	-3%	/	/	?
> O=C1NC(Cc2ccccc2)C(=O)N1CC(=O)N1CCCc2ccccc21 (centres undefined)
    /	-2%[14.2 µM]	0%	-6%	-1%	/	2%	-21%
> O=C(Nc1ccc(F)cc1)[C@@H](c1ccccc1)N1Cc2ccccc2C1=O
    -1.1%	-8%[46.1 µM]	/	46%[activator]	/	-4%	/	-4%[46.1 µM]

Single values from the results shown:
In SARS PLpro yeast, COc1cccc(C(=O)NNC(=O)c2ccccc2)c1 is entered as 4%
In StopGo reporter, N#CCCCn1c(=O)oc2ccccc21 is entered as -14%
In Cruzain inh noDet, O=C(Cn1nnc2ccccc2c1=O)Nc1ccc2c(c1)CCC2 is entered as -18%
In Cruzain inh Det, O=C(Nc1ccc(F)cc1)[C@@H](c1ccccc1)N1Cc2ccccc2C1=O is entered as -1.1%
In SARS PLpro yeast, O=C1NC(Cc2ccccc2)C(=O)N1CC(=O)N1CCCc2ccccc21 (centres undefined) is entered as -1%
In Lassa entry inh, O=S(=O)(Nc1ccc(-n2cccc2)cc1)c1ccccc1 is entered as -18%

In another format: results already given
structure | Cruzain inh Det | MARV entry inh | RE007 growth inh | StopGo reporter | SARS PLpro yeast | Cruzain inh noDet | NS1 function inh | Lassa entry inh
CCN(CC)CC(=O)NC12CC3CC(CC(C3)C1)C2 | -3.9% | -6% | -15% | 0% | -1% | 0% | -5% | 16%
N#CCCCn1c(=O)oc2ccccc21 | / | ? | 10% | -14% | 1% | / | 2% | 8%
Cc1c(C(=O)C(=O)N2c3ccc(F)cc3CCC2C)c2ccccc2n1C (centres undefined) | -6.6% | ? | 0% | 0% | -6% | 4% | 1% | ?
COc1ccc(/C=C/C(=O)Oc2ccc(C)c(C)c2)cc1OC | / | 14%[46.1 µM] | -12% | 3% | -1% | / | / | -5%

Next part
Below each compound: Cruzain inh Det	MARV entry inh	RE007 growth inh	StopGo reporter	SARS PLpro yeast	Cruzain inh noDet	NS1 function inh	Lassa entry inh
> Cc1c(C(=O)N(C)CCCCN2CCOCC2)oc2c(F)cccc12
    /	12%[46.1 µM]	49%	13%	-2%	/	1%	?
> N#C/C(=C\c1ccccc1Br)C(=O)NC1CC1
    /	/	-6%	0%	1%	/	10%	/
> O=C(Nc1ccc(OCc2ccccc2)cc1)Nc1ccccc1C(=O)NCCCN1CCOCC1
    /	-1%[46.1 µM]	-27%	34%[activator]	-2%	/	0%	17%[46.1 µM]
> CCN(CC)C(=O)Cn1cnc2sc(C(=O)N3CCN(Cc4ccc5c(c4)OCO5)CC3)c(C)c2c1=O
    /	-21%[46.1 µM]	0%	-25%	1%	/	/	?
> CC(C)NC(=O)c1ccc(C2SCC(=O)N2Cc2ccccc2)cc1 (centres undefined)
    -1.7%	-9%	-12%	/	-6%	11%	-1%	0%
> CN(c1cccc(NC(=O)CN(c2cccc(Cl)c2)S(=O)(=O)c2ccccc2)c1)S(C)(=O)=O
    -4.5%	?	14%	0%	2%	26%	9%	?
> CCN(C(=S)Nc1ccc(Oc2ccccc2)cc1)c1ccccc1
    -3.9%	0%	/	-8%	14%	14%	-5%	-24%
> O=C(O)CCn1cc(/C=C\C(=O)c2ccc(Cl)cc2)c(-c2cccc(Br)c2)n1
    -24%	-10%	-8%	0%	-18%	?	-4%	4%
> C/C(=N/NC(=O)c1ccncc1)c1c[nH]c2ccccc12
    /	8%[46.1 µM]	-7%	22%	-4%	/	/	1%
> Cc1ccc(C(C)C)c(OCC(=O)OCC(=O)NC2CCS(=O)(=O)C2)c1 (centres undefined)
    /	?	1%	-22%	-1%	/	/	13%
> COc1ccc(OC)c(NC(=O)/C=C/c2ccc(C)o2)c1
    -15%	-4%[46.1 µM]	/	10%	/	-2%	/	-4%[46.1 µM]
> O=C(C1CCCO1)N1CCC(c2nc3ccccc3[nH]2)CC1 (centres undefined)
    1.8%	8%	-4%	-8%	-2%	6%	-12%	3%
> NC(=O)c1cc(S(=O)(=O)N2CCN(c3ccc(F)cc3)CC2)cs1
    2.1%	/	/	-2%	/	5%	/	-7%[46.1 µM]
> CCCCOc1ccc(C(=O)NCCc2sc(-c3ccc(OC)c(OC)c3)nc2C)cc1
    -7.7%	/	/	-12%	/	?	/	?
> c1ccc2sc(N3CCCCC3)nc2c1
    /	1%[46.1 µM]	-23%	21%	/	/	/	-10%[46.1 µM]
> O=C(C1CCC(=O)N(C2CCCC2)C1)N1CCN(Cc2cccc(F)c2)CC1 (centres undefined)
    /	/	11%	0%	6%	/	17%	/
> COc1ccc(N/C=C/C(=O)c2ccc(Cl)cc2)cc1
    -0.5%	?	3%	-10%	17%	?	8%	-19%
> COc1cc(/C=C/C(=O)OCC(=O)Nc2cc(S(=O)(=O)N(C)C)ccc2Cl)ccc1O
    /	-3%[46.1 µM]	-27%	-3%	0%	/	-8%	19%
> Cc1ccc(OCC(=O)Nc2ccncc2)c(C)c1
    /	/	7%	0%	-1%	/	-23%	/
> Cc1ccc2nc(-c3ccccn3)cc(C(=O)Nc3ccc(S(=O)(=O)N4CCOCC4)cc3)c2c1
    /	4%[46.1 µM]	84%	-24%	15%	/	4%	?
> O=C1/C(=C\c2cccnc2)CCc2ccccc21
    -0.1%	9%	?	-16%	-21%	10%	-195%	0%
> Cc1cc2n(n1)C(c1sccc1C)Nc1c(C)cccc1-2 (centres undefined)
    -6.0%	11%	0%	-6%	2%	1%	-17%	?
> CSCC[C@H](NC(=O)c1cc2c([nH]c3ccccc32)c(-c2ccccc2)n1)C(=O)O
    /	/	2%	-18%	-2%	/	23%	/
> O=C(N/N=C\c1c(O)ccc2ccccc12)c1ccc(S(=O)(=O)N2CCCCC2)cc1
    -4.5%	1.3µM*	-19%	-12%	4µM*	?	25%	?
> O=C(NCc1ccccc1)c1cccc(COc2cc(Cl)ccc2Cl)c1
    -3.6%	?	/	2%	4%	1%	8%	?
> CCN(CC)C(=O)Cn1cc(C(=O)C(=O)N2CCN(Cc3ccc4c(c3)OCO4)CC2)c2ccccc21
    /	-9%	13%	15%	10%	/	-16%	-4%
> Cc1cc(C(=O)N/N=C/c2cc(Br)ccc2OC(=O)c2ccccc2Cl)n[nH]1
    /	10µM*	-23%	-13%	0%	/	4%	10µM*
> Cc1sc(NC(=O)C2C3CCC(C3)C2C(=O)O)c(C(N)=O)c1-c1ccc(C(C)(C)C)cc1 (centres undefined)
    -14%	-16%	1%	-5%	15%	2%	1%	?
> CCN1CCCC(NC(=O)c2scc3c2CCCC3)C1 (centres undefined)
    2.7%	/	2%	-15%	-11%	-5%	-1%	/
> Cc1ccccc1C(=O)N/C(=C/c1ccc(-c2cccnc2Cl)o1)C(=O)NCCCN1CCN(C)CC1
    -13%	?	20%	-20%	4%	-14%	-5%	17%
> CCC(=O)Nc1nc(C)nc(C)c1C(C)=O
    4.9%	9%	6%	-12%	-10%	0%	-4%	2%
> CC(=O)c1ccc(N2CCN(S(=O)(=O)c3ccc4c(c3)NC(=O)CO4)CC2)cc1
    /	-20%[46.1 µM]	3%	-6%	-7%	/	-1%	11%[46.1 µM]
> C#CCNC(=O)C1=C[C@@H](C2CCCCC2)[C@H](CCCO)[C@@H](OCC)O1
    /	/	8%	-23%	1%	/	4%	/
